FEN1 inh: qHTS Assay for the Inhibitors of Human Flap endonuclease 1 (FEN1); P39748; Recombinant FEN1 flap cleavage, fluorescence, 15 min; Potency, µM (series often up to 114 µM), for inactives: top-dose activity change, negative = inhibition, usual class: inhibitors; actives 0.35% (n = 390,000); further: nearly all actives have a fitted effect of over 65% in size
Target sequence (P39748 whole entry, looked up): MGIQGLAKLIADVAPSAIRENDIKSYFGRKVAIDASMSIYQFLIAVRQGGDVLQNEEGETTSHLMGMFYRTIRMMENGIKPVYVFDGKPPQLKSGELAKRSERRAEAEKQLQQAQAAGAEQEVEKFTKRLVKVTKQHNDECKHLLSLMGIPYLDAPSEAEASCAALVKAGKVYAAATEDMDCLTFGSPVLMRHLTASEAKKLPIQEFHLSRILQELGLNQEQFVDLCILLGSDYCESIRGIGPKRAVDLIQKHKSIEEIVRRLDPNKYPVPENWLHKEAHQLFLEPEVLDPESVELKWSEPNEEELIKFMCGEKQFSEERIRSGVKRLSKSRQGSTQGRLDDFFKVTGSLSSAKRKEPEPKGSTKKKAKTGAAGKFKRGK
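Reaction started by adding substrate (50 nM final) to 10 nM enzyme after 15 min room-temperature compound preincubation. Reads at 0 and 15 min, with data normalized and fitted to a four-parameter Hill equation.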
N370S GC mod: qHTS Assay for Inhibitors and Activators of N370S glucocerebrosidase as a Potential Chaperone Treatment of Gaucher Disease; AID 2101, 2009; Potency, µM (doses to about 59.4 µM), inactives show top-dose activity change, negative = inhibition, hits mostly inhibitors; actives 0.092% (n = 330,000); N370S GC spleen homogenate, 4MU-glucoside fluorescence;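 further: 0% = full enzyme activity and -100% = no enzyme basal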
Starred values were filed as active, the others as inactive; ? = inconclusive; . = not tested or not shown; & = joins results of further samples; [ ] = remark or other dose. The call rests on the fitted dose curve; in most records, active means well fitted curve in the direction sought with a large enough effect; inconclusive means small, poorly fitted or top-dose-only effect, or another doubt; inactive means no such curve, though single readings can be large; an effect the other way counts as inactive or inconclusive. Unless noted, on the % scale 0 is the no-effect control and ±100 the full control effect; potency means the concentration at half of the fitted maximal effect.

SMILES | FEN1 inh | N370S GC mod
COC1=C/C(=C/c2c(N)n3nc(CC(=O)N4CCCCC4)sc3nc2=O)C=CC1=O | -23.5% | -1.4%
CC(=O)C1=C(O)C(=O)N(CCc2c[nH]c3ccccc23)C1c1ccccc1 (stereo not given) | 0.1% | -11.6%
COc1ccc2c(=O)c(-c3ccccc3)c(C)oc2c1 | -2.2% | 14.1%
O=C(N/N=C/c1ccco1)c1cc(-c2cccc3ccccc23)n[nH]1 | -15.4% | .
COc1cc(NC(=O)CC(c2ccc(C)cc2)N2Cc3ccccc3C2=O)cc(OC)c1 (stereo not given) | 13.0% | .
CCc1cccc2sc(N3CCN(C(=O)c4cc5ccccc5cc4OC)CC3)nc12 | 2.2% | .
Cc1ccc(Nc2cc(-n3nc(C)cc3C)ncn2)c(C)c1 | -0.2% | -9.2%
CCC(CO)Oc1cc(NC(=O)c2ccc([N+](=O)[O-])cc2)c2ncn(C(C)C)c2c1 (stereo not given) | -1.3% | .
CCCCN(CC)CCNC(=O)CCNC(=O)Cn1ccc2ccccc2c1=O | 3.1% | 6.2%
O=C(O)c1ccc2c(c1)NC(=O)C(N1CCCC1)S2 (stereo not given) | -9.1% | 11.7%
CC(=O)N1CCN=C1SCc1ccc(Br)cc1 | -15.1% | 1.5%
COc1ccc(C(=O)C[n+]2ccc3c(c2)nc(-c2ccc(OC)cc2OC)n3C)cc1 | -10.6% | 6.3%
Cc1ccc(N(C)S(=O)(=O)c2cc(-c3cnc(C4CC4)o3)ccc2C)cc1 | ? | -7.3%
COc1cc2c(cc1OC)C(C)N(S(=O)(=O)c1ccc(Cl)nc1)CC2 (stereo not given) | -15.5% | 21.6%
O=C(c1cccc(-c2ccccc2F)c1)N1CC[C@@H](N2CCC(O)CC2)[C@H](O)C1 | 21.4% | -7.1%
Cc1ccc(OCCNS(=O)(=O)c2cccs2)cc1 | -15.9% | -17.3%
CC(C)C[C@@H](N)C(=O)O | . | -4.3%
O=C(Nc1ccccc1NS(=O)(=O)c1ccc(F)cc1)C1CCCC1 | -2.2% | -9.6%
O=C(CCNC(=O)c1ccc(Br)o1)NC1CCCC1 | 0.0% | -4.8%
O=C(Oc1ccc(Cl)c2cccnc12)C12CC3CC(CC(C3)C1)C2 | -6.7% | 3.5%
CCOc1ccc(NC(=O)CN(C)C(=O)c2cc3c(s2)CCC(C)C3)cc1OCC (stereo not given) | -2.2% | .
C=CCn1c(N)c(C(=O)Nc2ccccc2OC)sc1=S | -20.8% | -21.5%
CCCCOc1ccccc1NC(=O)Cn1c(-c2nonc2N)nc2ccccc21 | -4.9% | 14.8%
CC1CCCCC1NC(=O)c1cccc(N2C(=O)C3C4C=CC(C4)C3C2=O)c1 (stereo not given) | -6.0% | -6.2%
Cc1ccc2nsnc2c1NC(=O)COc1ccccc1 | 22.4% | -3.9%

Next part
SMILES | FEN1 inh | N370S GC mod
COc1ccc(C(=O)NC(=S)N2CC(C)OC(C)C2)cc1 (stereo not given) | 1.7% | 14.1%
Cc1ccc(Cl)cc1N(CC(=O)NCc1ccccc1)S(C)(=O)=O | 4.9% | 4.3%
CNC(=O)C1CCC(Cn2c(=O)c3sccc3n(CC(=O)NCc3ccc(C)cc3)c2=O)CC1 (stereo not given) | -6.1% | .
CCCCC(=O)NC(=S)NNC(=O)c1ccc(Cl)cc1Cl | -0.8% | 4.3%
CCCCN(C)CCCNC(=O)c1cc(=O)[nH]c2ccc(S(=O)(=O)N3CCCCC3C)cc12 (stereo not given) | 18.9% | -10.6%
CN(C)S(=O)(=O)c1cc(C(=O)Nc2ccccc2C(=O)NC2CC2)ccc1Cl | 12.6% | .
CCOC(=O)c1cc(-c2ccc(Cl)cc2)nc2c1c(=O)[nH]c(=O)n2CCOC | 19.0% | ?
Cc1ccc(OCCC(=O)OC(C)C(=O)NC2CC2)cc1 (stereo not given) | 4.3% | -5.1%
Cn1c(SCC(=O)N2CCCCCC2)nc2c([nH]c3ccccc32)c1=O | -3.2% | -19.7%
CC(C)(C)NC(=O)C1CC(=O)OC12CCCCC2 (stereo not given) | 0.4% | 6.3%
O=C(CSc1nnc(CNC(=O)c2ccc(F)cc2)o1)Nc1nccs1 | -3.7% | -14.4%
Cc1ccc(NC(=O)Cc2ccc(NC(=O)N3CCCCc4ccccc43)cc2)cc1Cl | -9.4% | .
Cc1nn(C(=O)CCCn2cc([N+](=O)[O-])cn2)c(C)c1Cl | 3.9% | 12.9%
N#Cc1cc(-c2ccccc2)cn(Cc2c(Cl)cccc2Cl)c1=O | 0.1% | -1.4%
Cc1ccc(-c2cc(NC(=O)C(C)Oc3ccccc3F)on2)cc1 (stereo not given) | 3.7% | .
NC(=O)Nc1ccc(C(=O)OCC(=O)Nc2ccc(Cl)cn2)cc1 | -6.9% | 4.8%
O=Cc1ccc(Sc2nnc(-c3ccccc3)o2)c([N+](=O)[O-])c1 | -18.2% | 3.4%
O=C(CCNC(=O)Cn1ccc2ccccc2c1=O)NCCCN1CCN(c2ccc(F)cc2)CC1 | 2.4% | 16.8%
CCCCNCc1cc(Br)c(OCC(=O)N2CCOCC2)c(OC)c1 | -5.7% | .
Cc1cc(C)cc(N(C(=O)c2cccs2)C2C=CS(=O)(=O)C2)c1 (stereo not given) | 0.0% | -1.9%
C/C(=N\NC(=O)c1ccc(-n2cnnn2)cc1)c1ccc(Cl)cc1 | -9.0% | .
COc1ccc2c(c1)CC(C(=O)NCCCN1CCN(c3ccccc3F)CC1)CO2 (stereo not given) | -4.6% | .
Cc1ccccc1/C=C/c1nc2ccccc2c(=O)n1CCc1ccccc1 | -14.4% | 6.5%
Cc1cc(C)c(S(=O)(=O)Nc2ccccc2C(=O)OCC(=O)NCc2ccccc2)c(C)c1 | -3.9% | -2.3%
O=C(CN(Cc1ccco1)C(=O)CNS(=O)(=O)c1ccc(F)cc1)NCCc1ccccc1 | -2.4% | -0.1%

Next part:
SMILES | FEN1 inh | N370S GC mod
Cc1ccc(Cl)cc1NC(=O)C1CCCCC1C(=O)O (stereo not given) | -0.5% | -3.3%
COc1cccc(CNC(=O)N2CCN(S(=O)(=O)c3ccc(C)cc3)CC2)c1 | 0.2% | -13.4%
CCOC(=O)c1sc(-c2ccccc2)cc1NC(=O)CSc1nnnn1C | 0.0% | 29.1%
Cc1cc(C)c(S(=O)(=O)c2ccccc2C)c(N(C)C)n1 | -0.8% | 6.8%
COc1ccc(NC(=O)CN(C)C(=O)Cc2ccc(S(=O)(=O)N3CCOCC3)s2)cc1 | -3.5% | -3.3%
COc1ccc(CCNC(=O)Cc2c(C)c3cc4c(C(C)(C)C)coc4c(C)c3oc2=O)cc1 | 0.9% | .
O=C(Nc1ccccc1N1CCCC1)c1cccnc1 | -14.3% | 0.5%
O=C(/C=C/c1ncc(C(F)(F)F)cc1Cl)OCc1ccccc1 | 7.5% | 1.7%
CC(C)CCOc1ccc(Cn2c(=O)oc3ccccc32)cc1 | 17.6% | .
Cc1ccc(C)c(NC(=O)CSc2ccc(S(=O)(=O)N3CCCC3)cn2)c1 | 6.3% | .
O=C(OCCCOC(=O)c1cc[n+]([O-])cc1)c1cc[n+]([O-])cc1 | 15.2% | 2.3%
O=C(O)c1cccc([N+](=O)[O-])c1 | . | -0.6%
Cc1cc(=O)oc2cc(OCCC[n+]3ccccc3)ccc12 | -15.6% | 11.0%
Cc1nc2c([nH]c3ccccc32)c(=O)n1N | -6.0% | -6.3%
CSc1ccccc1NC(=O)c1ccoc1C | 0.3% | 4.6%
CN(CP(=O)(O)CCc1ccccc1)S(C)(=O)=O | 0.2% | -6.0%[2.35 µM]
COc1ccc(CCCO[C@@H](Cn2ccnc2)c2ccc(OC)cc2)cc1 | . | ?
CCOC(=O)C1=C(COC(=O)/C=C/c2ccc(Cl)cc2)NC(=O)NC1C (stereo not given) | 7.3% | -0.6%
CCCC(=O)Nc1cc(-c2nc3ncccc3o2)ccc1Cl | -0.3% | -5.2%
CCc1ccc(NC(=O)C(C)OC(=O)c2cc(=O)[nH]c3ccc(S(=O)(=O)Nc4ccc(F)cc4)cc23)cc1 (stereo not given) | 7.3% | 7.2%
CCN(CCCNC(=O)c1cc2cc3cc(OC)ccc3nc2s1)c1ccccc1 | 3.7% | .
COc1ccc(Br)cc1CNC(=O)CN1C(=O)C(c2ccccc2)Oc2cccnc21 (stereo not given) | -4.1% | 0.6%
CCOC(=O)COc1cc(-n2c(=S)[nH]c3ccccc3c2=O)c(Cl)cc1Cl | -13.4% | 2.5%
CC(C)c1ccc(S(=O)(=O)N2CCN(C(=O)c3ccco3)CC2)cc1 | 7.7% | -9.1%
COc1ccc(-c2cc(C(F)(F)F)nc(-n3ccnc3)n2)cc1 | -12.0% | 0.7%

Arranged by number of heavy atoms (rising): six of the compounds above.
SMILES | FEN1 inh | N370S GC mod
O=C(O)c1cccc([N+](=O)[O-])c1 | . | -0.6%
O=C(Nc1ccccc1N1CCCC1)c1cccnc1 | -14.3% | 0.5%
CCCC(=O)Nc1cc(-c2nc3ncccc3o2)ccc1Cl | -0.3% | -5.2%
COc1ccc(-c2cc(C(F)(F)F)nc(-n3ccnc3)n2)cc1 | -12.0% | 0.7%
CCN(CCCNC(=O)c1cc2cc3cc(OC)ccc3nc2s1)c1ccccc1 | 3.7% | .
COc1ccc(NC(=O)CN(C)C(=O)Cc2ccc(S(=O)(=O)N3CCOCC3)s2)cc1 | -3.5% | -3.3%

Structures listed so far that have a furan ring, fused or not (6):
SMILES | FEN1 inh | N370S GC mod
O=C(N/N=C/c1ccco1)c1cc(-c2cccc3ccccc23)n[nH]1 | -15.4% | .
O=C(CCNC(=O)c1ccc(Br)o1)NC1CCCC1 | 0.0% | -4.8%
O=C(CN(Cc1ccco1)C(=O)CNS(=O)(=O)c1ccc(F)cc1)NCCc1ccccc1 | -2.4% | -0.1%
COc1ccc(CCNC(=O)Cc2c(C)c3cc4c(C(C)(C)C)coc4c(C)c3oc2=O)cc1 | 0.9% | .
CSc1ccccc1NC(=O)c1ccoc1C | 0.3% | 4.6%
CC(C)c1ccc(S(=O)(=O)N2CCN(C(=O)c3ccco3)CC2)cc1 | 7.7% | -9.1%

(list continues)
SMILES | FEN1 inh | N370S GC mod
CCOC(=O)c1c(C)noc1CP(=O)(c1ccccc1)c1ccccc1 | -10.0% | 3.5%
CCc1ccc(CNC(=O)c2ccc(OC)c(OC3CCN(C(C)C)CC3)c2)nc1 | -9.2% | -3.5%
CCOc1ccc(-n2c(=O)c3c(C)c(C(=O)N(C)C)sc3n(CC(=O)Nc3ccccc3F)c2=O)cc1 | 12.3% | -1.8%
COc1cc(C)nc(Nc2nc(C)c(C(C)=O)s2)n1 | ? | -3.2%
CCCNCC1C(Oc2ccc(Cl)cc2)C(=O)N1c1ccccc1C (stereo not given) | -3.6% | -6.2%
COc1ccc(OCCOC(=O)c2[nH]c(C)c(C(C)=O)c2C)cc1 | -16.5% | 10.9%
CCOC(=O)c1c(C)[nH]c(C)c1S(=O)(=O)NCc1ccccc1C | -1.5% | -1.5%
O=C(NCCn1ccc2ccccc21)c1ccc(S(=O)(=O)N2CCOCC2)cc1 | -18.0% | 0.5%
O=C(c1ccco1)N1CCN(C(=O)c2cc(Cl)nc3ccccc23)CC1 | -1.7% | -2.5%
O=C(CSc1nccn1Cc1ccccc1)NC1CCCC1 | 6.7%&17.9% | -5.7%
CC(C(=O)NC(=O)NC1CCCCC1)N1CCN(c2ccccn2)CC1 (stereo not given) | 6.9% | -4.4%
CCOC(=O)c1cccc(NC(=O)CNC(=O)C2CCCCC2)c1 | -1.3% | 20.6%
CCCNC(=O)c1ccccc1NS(=O)(=O)c1ccc2c(c1)OCCO2 | 7.2% | 4.4%
Cc1ccc(-c2cc(-c3ccccc3)no2)cc1 | -3.0% | 1.3%
COc1ccc(/C=N/NC(=O)Nc2cccc3nsnc23)cc1 | 12.3% | 0.6%
Cc1cc(C(=O)COC(=O)C2COc3ccccc3O2)c(C)n1CC1CCCO1 (stereo not given) | -3.6% | 3.6%
Cc1ccc(Cl)cc1N1CCN(C(=O)C2CCN(S(=O)(=O)c3c(C)nn(C)c3C)CC2)CC1 | 6.6% | -1.3%
CC1CN(c2nc(-c3ccccc3)nnc2-c2ccccc2)CC(C)O1 (stereo not given) | -14.1% | 0.8%
Cc1cc(N2CCN(c3nc4ccccc4s3)CC2)n2ncnc2n1 | -4.4% | 6.7%
CN(c1ncc(C(F)(F)F)cc1Cl)n1cc(C(=O)O)c2ccccc2c1=O | 7.8% | .
COc1ccc(CNc2ncnc(N)n2)cc1 | 8.2% | 12.4%
CCCCN(C)C(=S)Nc1ccc2nc(N3CCN(CC)CC3)cc(C)c2c1 | 13.4% | -4.9%
O=C(c1ccc2c(c1)OCO2)N(Cc1cccs1)C1(C(=O)NC2CCCCC2)CCCCC1 | 1.3% | 0.2%
COc1cc(NC(=O)COC(=O)c2cc(S(=O)(=O)N3CCOCC3)ccc2F)cc(OC)c1 | 0.1% | .
c1cc2c(cc1CNc1ccc(N3CCOCC3)cc1)OCO2 | -4.7% | .
O=C(CN(CCO)c1ccccc1)NC12CC3CC(CC(C3)C1)C2 | -6.0% | 2.8%
O=C(c1cccs1)N1CCN(C(=O)C(c2ccccc2)c2ccccc2)CC1 | 1.8% | 6.5%
Cc1ccc(NC(=O)Cn2c(=O)oc3cc(S(=O)(=O)N4CCC(C)CC4)ccc32)cc1Cl | 7.0% | .
CCOC(=O)c1sc(NC(=O)c2ccc(OC(C)=O)cc2)nc1C | 26.7% | -3.6%
O=C(c1ccc(Sc2cccc(Cl)c2)c([N+](=O)[O-])c1)N1CCN(c2ccccn2)CC1 | -1.4% | 1.8%

From PubChem

The list is partial; most or all hits stand in other tables.
